# Compound activity: PubChem BioAssay, several laboratories
# HSV augment = enhancers of HSV replication in host cells, fold increase, host cell viability; maximum fold increase; HSV replication augmentation in cells; hit rate 0.005% among 220,000;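 active means peak rise of 1.5-fold or more in the series; tested in PC3 cells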;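 further: first round at 10 µM; read as green reporter fluorescence; hits show the peak of a series up to 25 µM; 1 = signal of infected wells without compound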
# RGS16-Gao HTS = modulators of RGS16 binding to Galphao, primary screen, biochemical, human proteins, multiplexed bead flow cytometry; hit rate 0.38% among 220,000; bead-based flow cytometry RGS16-Galphao binding, fluorescence; actives lie on both sides; binding response (% of control), % at 10 µM;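 active means below 25% or above 175%, edge rows of some plates excepted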;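 further: Galphao activated by GDP with aluminum fluoride before binding; 100% = wells without compound and 0% = beads without RGS; some results beyond the cut were filed as inactive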
# Target sequence (O15492 whole entry, looked up): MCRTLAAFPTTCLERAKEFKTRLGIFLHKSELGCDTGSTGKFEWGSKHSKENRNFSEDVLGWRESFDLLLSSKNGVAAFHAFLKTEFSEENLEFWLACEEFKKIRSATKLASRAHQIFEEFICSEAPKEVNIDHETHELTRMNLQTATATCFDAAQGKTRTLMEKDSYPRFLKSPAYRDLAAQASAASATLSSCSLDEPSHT
# Target sequence (P09471 whole entry, looked up): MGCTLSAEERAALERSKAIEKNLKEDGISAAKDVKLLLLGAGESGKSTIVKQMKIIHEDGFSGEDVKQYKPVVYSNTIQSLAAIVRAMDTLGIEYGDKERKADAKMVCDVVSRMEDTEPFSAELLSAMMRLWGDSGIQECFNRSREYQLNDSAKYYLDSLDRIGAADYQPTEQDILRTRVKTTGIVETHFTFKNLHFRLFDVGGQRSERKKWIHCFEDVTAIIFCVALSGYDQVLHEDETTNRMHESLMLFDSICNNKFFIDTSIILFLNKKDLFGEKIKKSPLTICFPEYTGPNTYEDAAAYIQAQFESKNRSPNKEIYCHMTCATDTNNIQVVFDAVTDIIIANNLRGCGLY
# HSV augment primary fold = recorded beside HSV augment, whose call it bears; fold increase; compound at 10 µM; measured here: primary screen fold increase 10 uM; tested in PC3 cells;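 GFP signal in the first replicate; 1 = infected wells without compound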
# Active calls of the source: *; i = inactive; x = no result given.
No.	smiles	HSV augment primary fold	RGS16-Gao HTS	HSV augment
1	CCCCCCNC(=O)N[C@H](C(=O)NCCC[C@H]1CN2C(=NC[C@H]2C)N1CCC(c1ccccc1)c1ccccc1)C(C)O (stereo partly drawn)	x	59.7	x
2	NC[C@@H]1O[C@H](O[C@H]2[C@@H](O)[C@H](O[C@@H]3[C@@H](O)[C@H](N)C[C@H](N)[C@H]3O[C@H]3O[C@H](CO)[C@@H](O)[C@H](O)[C@H]3N)O[C@@H]2CO)[C@H](N)[C@@H](O)[C@@H]1O	x	96.8	x
3	C[C@@H]1CN(c2c(F)c(N)c3c(=O)c(C(=O)O)cn(C4CC4)c3c2F)C[C@H](C)N1	x	102.7	x
4	C#CCOCCOCCOCCNc1nc(N2CCN(C(=O)[C@H](Cc3ccc(O)cc3)n3cc([C@@H](N)C(C)CC)nn3)CC2)nc(N2CCN(C(=O)[C@H](Cc3cc4ccccc4[nH]3)n3cc([C@@H](N)Cc4ccc(O)cc4)nn3)CC2)n1 (stereo partly drawn)	x	97.5	x
5	CCn1c2ccccc2c2c3ncc4cccn4c3ccc21	x	135.4	x
6	CC(C)(C)c1cc(-c2n[nH]c(=S)n2-c2ccccc2F)n[nH]1	x	99.9	x
7	CCOC(=O)c1cnc(COc2ccc(OC)cc2)[nH]c1=O	x	97.5	x
8	Cc1ccc(-c2nc(NC(=O)CSc3nnc4scc(-c5ccccc5)n34)ns2)cc1	x	92.9	x
9	C[C@@H]1CC=C[C@H]2[C@H]1C(=O)N(Cc1ccccc1)[C@H]2c1ccc(-c2cc3ccccc3s2)cc1F	x	105.0	x
10	O=C(CC1NCCNC1=O)NC1Cc2ccccc2C1 (stereo not drawn)	x	101.0	x
11	Cn1cc(Br)c(NC(=O)/C=C/C(=O)O)n1	x	98.7	x
12	C#CCOCCOCCOCCNc1nc(N2CCN(C(=O)[C@H](CCCCN)n3cc(C(N)COC(=O)C(F)(F)F)nn3)CC2)nc(N2CCN(C(=O)[C@H](CCCCN)n3cc(C(N)CC(C)C)nn3)CC2)n1 (stereo partly drawn)	x	98.7	x
13	O=C(C1=NN[C@@H]2C(=O)N(c3cccc(F)c3)C(=O)[C@H]12)c1cnccn1	x	96.9	x
14	CCN1C(=O)N(S(=O)(=O)c2ccc(C)cc2)[C@@H](c2ccccc2)C(C(=O)OC)=C1C	x	104.7	x
15	CCCN1C(=O)C2(C(C(=O)c3ccc(C)o3)=C(O)C(=O)N2CCCOC)c2ccccc21 (stereo not drawn)	x	101.3	x
16	COc1ccc(N2CCN(C(=O)CSc3nc4cc(OC)c(OC)cc4cc3C#N)CC2)cc1	1.02	x	i
17	O=C(NC1CC1)C1=C[C@@H](C2CC2)C[C@@H](OCCCCO)O1	0.68	x	i
18	CCCNC(=O)c1onc(CSc2ccc(Cl)cc2)c1C(=O)NCCOC	0.94	x	i
19	CCOC(=O)C1=C(C)N(CCCC(=O)O)C(=O)NC1c1cccc(OC)c1 (stereo not drawn)	0.91	x	i
20	C[C@]12CC[C@@H]3c4ccc(O)cc4CC[C@H]3[C@@H]1CC[C@@H]2OC(=O)CCC1CCCC1	0.91	x	i
21	CCOc1ccc2[nH]c(=O)c(CN(CC3COCCO3)C(=O)c3ccco3)cc2c1 (stereo not drawn)	1.04	x	i
22	COc1ccc(C2=CC3=C(Br)C(=O)C(C)(OC(=O)c4cnc5ccccc5n4)C(=O)C3=CO2)cc1 (stereo not drawn)	0.85	x	i
23	Cn1cc(C[C@H](NC(=O)OC(C)(C)C)C(=O)N[C@H](CO)Cc2ccccc2)c2ccccc21	0.82	x	i
24	COC(C/C=C\C(=O)COCc1ccccc1)OC	1	x	i
25	Cc1oc(-c2ccc(F)cc2)cc1-c1nn2c(-c3ccoc3C)nnc2s1	0.98	x	i
26	O=C(Nc1ccc(C2CCCCC2)cc1)C1CCCN(c2ncccn2)C1 (stereo not drawn)	0.59	x	i
27	O=C1c2c(O)cc(O)cc2O[C@H](c2ccc(O)cc2)[C@H]1O	0.98	x	i
28	CC(C)=CCC12Oc3cc(O)ccc3C1(O)Oc1cc(O)c([C@H]3C=C(C)CC(c4ccc(O)cc4O)[C@H]3C(=O)c3ccc(O)cc3O)c(O)c1C2=O (stereo partly drawn)	0.89	x	i
29	c1ccc(-c2cnnc(-c3ccccn3)n2)cc1	1.02	x	i
30	CCOc1cc2c(C#N)c(N3CCCC3)nc(N)c2c(N)n1	0.93	x	i
31	CC(=O)Oc1ccc(N2C(=O)C3C(C2=O)C2(C)C=CC3(C)O2)cc1 (stereo not drawn)	0.9	x	i
32	CC(Nc1nc(-c2ccc(F)cc2)cs1)c1nc2cc(Cl)c(Cl)cc2n1CCCO (stereo not drawn)	0.73	x	i
33	OCc1cccnc1	0.74	x	i
34	COC/C=C/C1=CC2=CC(=O)C(C)(OC(=O)c3cnc4ccccc4n3)C(=O)C2=CN1Cc1ccco1 (stereo not drawn)	0.77	x	i
35	CC(=O)N1CCC2(CC1)CC(=O)c1cc(Cl)ccc1O2	1.13	x	i
36	C=CCOC(=O)C1=C[C@@H](c2ccc3c(c2)OCO3)C[C@@H](OCCCCO)O1	0.76	x	i

# A second format for some results above:
[33] OCc1cccnc1
  HSV augment primary fold: 0.74	RGS16-Gao HTS: x	HSV augment: i

[34] COC/C=C/C1=CC2=CC(=O)C(C)(OC(=O)c3cnc4ccccc4n3)C(=O)C2=CN1Cc1ccco1 (stereo not drawn)
  HSV augment primary fold: 0.77	RGS16-Gao HTS: x	HSV augment: i

[35] CC(=O)N1CCC2(CC1)CC(=O)c1cc(Cl)ccc1O2
  HSV augment primary fold: 1.13	RGS16-Gao HTS: x	HSV augment: i

# Carrying on:
No.	smiles	HSV augment primary fold	RGS16-Gao HTS	HSV augment
37	CCCCOc1cc(CC2CNC(=O)N2)ccc1OC (stereo not drawn)	0.86	x	i
38	COC(=O)C1=C(C)N(CCCC(=O)O)C(=O)NC1c1ccccc1Cl (stereo not drawn)	0.85	x	i
39	CC(=O)c1c(COC(=O)c2ccco2)nc2ccccc2[n+]1[O-]	0.88	x	i
40	COC(=O)C1=C(C)N(CCCC(=O)O)C(=O)NC1c1ccc2c(c1)OCO2 (stereo not drawn)	0.74	x	i
41	CC(C)NC(=O)c1onc(CSc2ccc(F)c(F)c2)c1C(=O)NC(C)C	0.91	x	i
42	COC/C=C/C1=CC2=CC(=O)C(C)(OC(=O)c3cnc4ccccc4n3)C(=O)C2=CO1 (stereo not drawn)	0.9	x	i
43	CCOP(=O)(OCC)C(Nc1ccc(F)cc1)c1ccccc1 (stereo not drawn)	1.01	x	i
44	COc1ccc(CC(=O)Nc2cc(C)c3c(=O)oc4ccccc4c3n2)cc1	0.92	x	i
45	CCOC(=O)c1cccc(NC(=O)c2c(N)n(C)c(=O)[nH]c2=O)c1	0.92	x	i
46	CCCCN1CC[C@H]2C=CC[C@@H](C(=O)N3CCN(c4ccccc4)CC3)[C@H]2C1=O	0.81	x	i
47	Cc1cc(C)n(-c2ccc(Cl)c(C(=O)OCC(=O)N3CCCCC3C)n2)n1 (stereo not drawn)	0.72	x	i
48	COc1ccccc1NC(=O)N(CCCN1CCOCC1)Cc1cc2cc3c(cc2[nH]c1=O)OCO3	0.9	x	i
49	COc1cccc(-c2nc(SC)nc3sc(C(=O)NC(C)(C)C)c(N)c23)c1	0.85	x	i
50	COC(C/C=C\[C@H](O)[C@H](C)OCc1ccccc1)OC	0.96	x	i
51	CC(C)(C)c1ccc(C2=CC(c3ccccc3)n3ncnc3N2)cc1 (stereo not drawn)	1.13	x	i
52	Nc1nc(F)nc2c1ncn2[C@@H]1O[C@H](CO)[C@@H](O)[C@H]1O	0.41	x	i
53	COc1cccc(C2=CC(=O)CCC2)c1OC	0.77	x	i
54	CCC1(CC)C(=O)C2=C3C1[C@H](C(=O)OC)CC(C(=O)OC)C[C@H]3n1c(=O)n(-c3ccccc3)c(=O)n1[C@H]2C (stereo partly drawn)	0.76	x	i
55	CCCCNC(=O)[C@@H]1CC=C[C@@H]2CCN(C3CC3)C(=O)[C@@H]21	0.75	x	i
56	OCC[C@@H]1C[C@H](O)[C@@H](O)[C@]2(CCCCO2)O1	1.04	x	i
57	O=C(Nc1ccccc1)C1=C[C@@H](c2ccc(C(F)(F)F)cc2)C[C@@H](OCCCCO)O1	0.89	x	i
58	COc1ccc(C2=CC3=C(Br)C(=O)C(C)(OC(=O)c4cccs4)C(=O)C3=CO2)cc1 (stereo not drawn)	0.94	x	i
59	CC(Nc1nc(-c2ccc(F)cc2)cs1)c1nc2cc(Cl)c(N3CCCCC3)cc2n1CCCO (stereo not drawn)	0.78	x	i
60	COC(=O)C1=C(C)N(Cc2ccco2)C(=O)N[C@@H]1c1ccco1	0.84	x	i
61	CN(C)CCOc1ccc(/C(=C(/CCCl)c2ccccc2)c2ccccc2)cc1	0.6	x	i
62	CC1=C(N2CCCCC2)CCC1=O	0.95	x	i
63	O=C1c2ccccc2S(=O)(=O)c2cc(C(=O)N3CCN(C(=O)c4ccccc4)CC3)ccc21	0.91	x	i
64	O=C(NCc1cccc(Br)c1)C1CC(c2cc(C(F)(F)F)cc(C(F)(F)F)c2)=NO1 (stereo not drawn)	0.99	x	i
65	CCO[C@@H]1OC(C(=O)N2CCOCC2)=C[C@H](C(C)(C)C)[C@H]1CCCO	0.96	x	i
66	Cn1ccc2cc(NC(=O)Nc3cccnc3)ccc21	0.76	x	i
67	c1ccc(-c2nc(C3CCCCC3)c3sccc3n2)cc1	0.78	x	i
68	O=C1C(=O)N(CCCn2ccnc2)C(c2cccnc2)/C1=C(/O)c1ccc(F)cc1 (stereo not drawn)	0.77	x	i
69	CCC/C=C1/CCCOC(C(=O)NCc2ccccn2)(C(F)(F)F)C1 (stereo not drawn)	0.87	x	i
70	COCOc1cc(O)c(C(=O)/C=C/c2ccc(OCOC)c(OCOC)c2)c(OCOC)c1	0.92	x	i
71	C[C@@H]1CCC[C@]2(O[C@@H](CCO)C[C@@H](O)[C@@H]2O)O1	0.94	x	i
72	Cc1ccc(C2=NOC(C)(c3nnc(-c4ccncc4)o3)C2)cc1 (stereo not drawn)	1.09	x	i
73	O=C(NCc1cccc(C(F)(F)F)c1)C1CC2Cn3c(nc4ccccc43)C2N1Cc1ccccc1 (stereo not drawn)	0.82	x	i
74	CN(C)C(N)=NCCC[C@H](N)C(=O)O	0.83	x	i
75	O=C(O)c1cc(-c2ccccc2)nn1CC1CC(c2cccc([N+](=O)[O-])c2)=NO1 (stereo not drawn)	0.78	x	i
76	COC/C=C/C1=CC2=CC(=O)C(C)(OC(=O)c3cnc4ccccc4n3)C(=O)C2=CN1C1CC1 (stereo not drawn)	0.92	x	i
77	COC(=O)/C=C/c1ccc2c(c1)S(=O)(=O)N(c1cccc(OC)c1)[C@H]2CC(=O)OC	0.99	x	i
78	CC(=O)N[C@H]1[C@H]([C@H](O)[C@H](O)CO)OC(C(=O)O)=C[C@@H]1O	0.87	x	i
79	CC(C)[C@H]1COCCS(=O)(=O)N1Cc1ccccc1	0.81	x	i
80	Cc1cccc(CN2[C@@H](CC(C)C)COCCS2(=O)=O)c1	0.87	x	i
81	OCCNc1nc(Nc2ccccc2C(F)(F)F)nc(N2CCCC2)n1	0.61	x	i
82	COC(=O)C1=C(C(=O)OC)[C@@H]2Nc3ccccc3[C@@]23C[C@@H](C(=O)OC)N(C(=O)C2CCC2)C3=N1	1.16	x	i
83	Cc1cc(Cl)ccc1NC(=S)NCCc1ccc(S(N)(=O)=O)cc1	1.05	x	i
84	COc1ccc(CNS(=O)(=O)c2ccc(S(=O)(=O)N3CCCCC3)cc2)cc1	0.87	x	i
85	COc1cc(C[C@@H](CO)[C@H](CO)Cc2ccc(O)c(OC)c2)ccc1O	0.8	x	i
86	O=C(O)c1ccc(-c2noc(-c3cccc(C(F)(F)F)c3)n2)cc1	0.85	x	i
87	Nc1nc(Nc2ccccc2)nc2c1ncn2[C@@H]1O[C@H](CO)[C@@H](O)[C@H]1O	0.56	x	i
88	C=CCOC(=O)C1=C[C@@H](c2cn(C(C)=O)c3ccccc23)C[C@@H](OCc2ccc(CO)cc2)O1	0.93	x	i
89	COc1ccc(CNC(=O)[C@@H]2CC=C[C@@H]3CCN(Cc4ccccc4)C(=O)[C@@H]32)cc1	1.03	x	i
90	C=CCNC(=O)c1c(CSc2ccc(Cl)cc2)noc1C(=O)NCCC	0.87	x	i
91	C=C1CSc2nc(=O)c3c4c(sc3n21)CCC4	0.9	x	i
92	Oc1cccc(O)c1O	1.08	x	i
93	CC1(C)S[C@@H]2[C@H](N=CN3CCCCCC3)C(=O)N2[C@H]1C(=O)O	0.85	x	i
94	CC1(c2nnc(Cc3ccccc3)o2)CC(c2ccccc2)=NO1 (stereo not drawn)	0.91	x	i
95	COC(=O)C[C@H]1c2cc(C(F)(F)F)ccc2S(=O)(=O)N1C1CCCC1	0.9	x	i
96	CCOC(=O)C1Nc2ccc(C)cc2C2C=CCC12 (stereo not drawn)	0.91	x	i

# Continued:
No.	smiles	HSV augment primary fold	RGS16-Gao HTS	HSV augment
97	C#CCOCCOCCOCCNc1nc(N2CCN(C(=O)C([C@@H](C)CC)n3cc(C(N)COC(=O)C(F)(F)F)nn3)CC2)nc(N2CCN(C(=O)[C@H](CCCCN)n3cc(C(N)CC(C)C)nn3)CC2)n1 (stereo partly drawn)	0.79	x	i
98	CC1(OC(=O)c2ccc(Cl)nc2)C(=O)C=C2C=C(c3ccc(C#N)cc3)OC=C2C1=O (stereo not drawn)	1	x	i
99	Nc1ncnc2c1ncn2[C@@H]1O[C@H](CO)C[C@H]1O	0.72	x	i
100	COc1cc(C)c(C(=O)Oc2cc(C)c(C(=O)O)c(O)c2C)c(O)c1C	1.02	x	i
101	CCOC(=O)C1Nc2ccccc2C2c3ccccc3CC12 (stereo not drawn)	0.5	x	i

# Only part of the results is shown; the hit share may differ from the screen's.
